TRPV1 PAM: potentiators of human vanilloid receptor 1 (TRPV1). Q8NER1. TRPV1-expressing cells, Fluo-8 calcium influx, capsaicin EC20 potentiation; host cell line not named in the record; control for the full effect not named in the record. potentiation, % at 8.33 µM. 0.02% of 320,000 active; active means potentiation above 80%; inconclusive means 30% to 80%; inactive means below 30%; also: 0% is about no effect
Target sequence (Q8NER1 whole entry, looked up): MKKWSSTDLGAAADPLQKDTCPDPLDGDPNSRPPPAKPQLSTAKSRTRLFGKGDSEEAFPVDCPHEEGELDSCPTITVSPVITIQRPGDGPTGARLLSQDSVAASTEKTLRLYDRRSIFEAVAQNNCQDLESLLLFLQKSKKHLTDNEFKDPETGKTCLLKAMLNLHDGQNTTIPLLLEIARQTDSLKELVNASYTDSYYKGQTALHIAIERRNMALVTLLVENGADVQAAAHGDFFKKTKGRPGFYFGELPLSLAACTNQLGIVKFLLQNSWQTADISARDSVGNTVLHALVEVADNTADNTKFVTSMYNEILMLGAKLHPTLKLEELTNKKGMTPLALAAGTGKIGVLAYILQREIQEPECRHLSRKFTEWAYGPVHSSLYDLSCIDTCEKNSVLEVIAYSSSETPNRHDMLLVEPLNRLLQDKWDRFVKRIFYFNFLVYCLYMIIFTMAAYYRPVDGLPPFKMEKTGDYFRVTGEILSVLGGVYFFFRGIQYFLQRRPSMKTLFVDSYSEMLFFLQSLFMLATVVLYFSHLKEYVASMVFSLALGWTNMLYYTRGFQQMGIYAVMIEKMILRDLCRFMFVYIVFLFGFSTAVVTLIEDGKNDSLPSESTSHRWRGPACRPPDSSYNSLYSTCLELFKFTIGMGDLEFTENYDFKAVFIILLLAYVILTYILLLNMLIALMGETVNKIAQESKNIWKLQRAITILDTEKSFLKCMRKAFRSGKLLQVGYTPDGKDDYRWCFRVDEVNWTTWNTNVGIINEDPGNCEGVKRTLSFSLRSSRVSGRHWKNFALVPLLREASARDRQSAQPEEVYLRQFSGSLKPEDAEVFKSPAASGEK
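Cells expressing TRPV1 were dye-loaded with Fluo-8 and read kinetically: 10 s baseline, 3 min after compound (agonist portion), then 2 min after EC20 capsaicin (allosteric enhancer portion). Calcium-bound dye fluorescence at 480/520 nm.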
ClpP mod: qHTS Assay for Activators of ClpP; ATP-dependent Clp protease proteolytic subunit (Bacillus subtilis (strain 168)), P80244; purified B. subtilis ClpP, FRET peptide cleavage, 20 min; Potency, µM (series often up to 57.5 µM), for inactives: at the top dose activity change, negative = active; 1.9% of 340,000 active; AID 651965, 2013; active = well fitted falling curve with a large enough effect; inconclusive = small, poorly fitted or top-dose-only effect; inactive = no such curve, though single readings can be large or run the other way; also: potency is read from the fitted curve at half-maximal effect; the source files actives as falling curves though it sought activators and does not explain the sign; nearly all actives have a fitted effect of over 65% in size; many hits overshoot -100%
Target sequence (P80244 whole entry, looked up): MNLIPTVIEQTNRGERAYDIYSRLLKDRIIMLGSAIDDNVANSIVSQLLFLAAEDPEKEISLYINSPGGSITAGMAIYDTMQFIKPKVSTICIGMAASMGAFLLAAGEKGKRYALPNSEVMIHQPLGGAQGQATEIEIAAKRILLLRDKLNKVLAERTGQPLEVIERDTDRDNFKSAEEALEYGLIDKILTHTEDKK
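ClpP 10 microg/mL final, pH 8 Tris/KCl buffer with BSA, glycerol, Tween-20; compound pinned in; FRET-FV substrate; RT 20 min; Ex320/Em430; ΔFRET vs ADEP 5.8 microM, DMSO, no enzyme.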
gsp ag: agonists of gsp mutant (McCune-Albright syndrome); gsp mutant cells, cAMP HTRF, 30 min; control for the full effect not named in the record; Potency, µM (series often up to 76.9 µM), for inactives: top-dose activation (cAMP increase), hits mostly activators; 0.13% of 340,000 active; AID 624287; active = well fitted activation curve with a large enough effect; inconclusive = small, poorly fitted or top-dose-only effect, or another doubt; inactive = no such curve, though single readings can be large or run the other way; cell line not stated here;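 also: phosphodiesterase inhibitor Ro 20-1724 added with compounds to block cAMP breakdown; potency is read from the fitted curve at half-maximal effect; nearly all actives have a fitted effect of over 60% in size; about a fifth of the inactives were tested at one dose only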
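Cells in DMEM/10% FBS with G418 were pretreated with compounds in DMSO plus […] (300 uM stock) for 30 min at 37C. cAMP was measured by HTRF (cAMP-d2 plus anti-cAMP antibody-K) after 30 min at room temperature.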
D2 potentiator: potentiates the human D2 dopamine receptor allosterically; P14416; 0.23% of 360,000 active; potentiation, % (concentration not given with the values); DiscoveRx D2 beta-arrestin cells, luminescence, 90 min; 100% = 57 uM dopamine signal; AID 624464; active = potentiation of 50% or more; inconclusive = 30% to 50%; inactive = 30% or less;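 also: compound concentration not given in the record; tested on top of an EC20 dose of dopamine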
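D2 cells co-treated with compound plus 50 nM dopamine (EC20) for 90 min at 37 deg C to detect potentiation. Beta-arrestin recruitment was read as enzyme-fragment luminescence after 1 h at ambient temperature. Full response was set by 57 uM dopamine.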
gsp antagonist: antagonizes gsp, the McCune-Albright syndrome mutation | AID 624288 | gsp-mutant cells, cAMP HTRF, 30 min; control for the full effect not named in the record | 0.4% of 340,000 active | Potency, µM (highest dose often 76.9 µM), for the others: top-dose activity change, negative = inhibition, actives largely listed as inhibitors; active = falling curve of any shape with a large fitted effect; inconclusive = falling curve, mostly with a smaller effect; inactive = flat or rising curve; cell line not stated here;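 also: intracellular cAMP measured with PDE inhibitor Ro 20-1724 present during compound exposure; potency is read from the fitted curve at half-maximal effect; % is scaled to controls: 0 for no effect and ±100 for the full control effect; nearly all actives have a fitted effect of over 65% in size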
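Cells, 2000/well, grown 16–24 h in DMEM 10% FBS with 0.5 mg/ml G418, then compounds plus […] (300 uM addition stock), 30 min at 37C. cAMP read by HTRF (cAMP-d2 and anti-cAMP antibody-K in lysis buffer) after 30 min RT.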
Sfp inh: blocks B. subtilis Sfp PPTase activity; Q9F4F7; Biochemical Sfp PPTase activity, qHTS; Potency, µM, for the others: max response, negative = inhibition, most hits filed as inhibitors; 3.5% of 310,000 active; AID 1490; active = well fitted inhibition curve with a large enough effect; inconclusive = small, poorly fitted or top-dose-only effect, or another doubt; inactive = no such curve, though single readings can be large or run the other way;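 also: the enzyme is Sfp with the accession as filed and its product quenches rhodamine fluorescence; potency is read from the fitted curve at half-maximal effect; 0% = enzyme reaction without inhibitor and -100% = no enzyme wells; top concentration of the series not given in the record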
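Fluorescence-quenching assay with 15 nM Sfp, 5 uM rhodamine-CoA and 12.5 uM BHQ-2-labelled ybbR peptide in pH 7.6 Hepes/MgCl2 buffer. Enzyme was pre-incubated with compound for 15 min at room temperature. Rate was taken from the 30-min fluorescence change (525/598 nm).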
Menin-MLL FL inh: displaces fluorescein MLL peptide from human menin | FP activity change, % at 61.4 µM | 290,000 tested, under 10 active | Fluorescence polarization, fluorescein-MLL peptide displacement from menin; inconclusive = falling polarisation curve, or a change in total fluorescence; inactive = total fluorescence flat and polarisation flat or rising; no compound was filed as active; the % refers to the polarisation; negative = inhibition;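 also: % of control where 0% means no effect; inhibitors lower the polarisation; unlabelled MLL peptide was the positive control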
Active calls of the source: *; ? = inconclusive; / = not tested or not shown; [ ] = dose if it differs, or a comment.

SMILES	TRPV1 PAM	ClpP mod	gsp ag	D2 potentiator	gsp antagonist	Sfp inh	Menin-MLL FL inh
CC(C)NC(=O)c1cc(=O)n(C)c(=O)n1C	-5	2.1%	-2%	-9	15%	5%	2.0
O=C(NC(=S)NNC(=O)c1ccccc1O)c1ccco1	-3	-2.3%	-2%[15.4 µM]	3	2%	-8%	0.7
COc1ccc(C(=O)OCC(=O)NCCc2ccc(F)cc2)cc1S(=O)(=O)N1CCOCC1	/	1.5%	-2%	-17	1%	/	/
COc1ccc(N(CC(=O)Nc2cccc(C(F)(F)F)c2)S(C)(=O)=O)cc1	1	1.2%	-5%	-12	-3%	18%	3.1
CCCN1CNC(=S)N(CC2CCCO2)C1 (stereo unspecified)	?	0.6%	7%[15.4 µM]	-6	-7%	-34%	1.6
COc1ccc([C@H](NC(=O)OC(C)(C)C)C(=O)OC(C)(C)C)cc1	-28	0.2%	-34%[inhibitor]	-9	-3%	/	/
COC1(OC)C(=N/O)/C(=N\O)CCC1O (stereo unspecified)	?	-0.2%	23%	-1	9%	-7%	-2.0
Cc1ccc(S(=O)(=O)N2CCN(C(=O)Cc3ccccc3)CC2)cc1C	15	-0.6%	-4%	0	4%	/	/
O=C(Nc1ccc(N2CCCCC2)cc1)c1cc([N+](=O)[O-])cc([N+](=O)[O-])c1	-4	/	-8%	7	11%	10%	-4.7
CN(Cc1ccccc1)C(=O)c1ccc(NC(=O)Cc2ccc(NC(=O)C3CCN(C(=O)CCc4ccccc4)CC3)cc2)cc1	/	-5.1%	/	-2	6%	/	/
CC(C)(C)NC(=O)CCN1CCOCC1	28	-2.3%	8%	7	0%	13%	-2.0
CCCCOc1ccc(C(=O)NCC(=O)N2CC(C)CC(C)C2)cc1 (stereo unspecified)	-8	1.5%	?	3	4%	/	/
COCCNC(=O)C(c1cccs1)N(C(=O)Cn1nnc2ccccc21)c1ccc2c(c1)OCO2 (stereo unspecified)	7	0.1%	-2%	5	2%	7%	0.4
O=C(O)CCSc1ncnc2sc(-c3ccccc3)cc12	8	/	?	-5	?	-1%	2.2
COc1cccc(CN2CCN(c3ccc(F)cc3)C2=O)c1	7	/	-11%	-2	-3%	8%	1.6
Cc1cc(C(=O)CCC(=O)N(C)CC(=O)Nc2ccccc2Br)c(C)s1	9	-3.9%	13%	-16	-2%	/	/
C/C(=N\NC(=S)Nc1ccc(F)cc1)C1CC1	3	0.3%	-31%[inhibitor]	7	0%	45µM*	4.2
N#CCCN(Cc1cccnc1)C(=O)Nc1cccc(Cl)c1	0	-0.8%	19%	-9	3%	11%	0.5
CC1CCC(NC(=O)CCS(=O)(=O)c2ccc3c(c2)oc(=O)n3C)CC1 (stereo unspecified)	-6	-0.5%	?	-5	7%	10%	/
CCN1C(=O)N(CN2CCOCC2)C2C1N(CN1CCOCC1)C(=O)N2CC (stereo unspecified)	2	-1.9%	25%	-2	6%	2%	5.0
COc1cccc(CNCc2ccc3c(c2)OCO3)c1	5	-0.3%	2%[15.4 µM]	-16	5%	-18%	0.5
O=[N+]([O-])c1ccc(-c2cn3c(n2)CCC3)cc1	-11	-3.1%	14µM*	-13	4%	7%	-0.3
Cc1ccccc1CN1CCN(CC(=O)NCc2ccccn2)C1=O	-1	-0.2%	?	0	2%	18%	1.9
Cc1nc(NS(=O)(=O)c2ccccc2)sc1NC(=O)Nc1ccc(Cl)cc1	6	-5.2%	13%	-3	-3%	79µM*	1.0
Cn1c(Oc2ccc(F)cc2F)c(C=O)c2ccccc21	11	/	?	-9	-19%	0%	0.0
C=CCN1C(=O)C(CC(=O)NCC)SC1=Nc1cc(Cl)ccc1Cl (stereo unspecified)	-7	/	-31%	-4	-18%	27%	3.5
COc1cc(Br)cc(CN2CCN(C/C=C/c3ccccc3)CC2)c1O	-4	-0.4%	1%	-14	4%	-24%	2.5
CCOC(=O)C1(Cc2ccc(OC)cc2)CCN(C(=O)c2ccc3[nH]ccc3c2)CC1	-15	1.8%	3%	-19	-15%	6%	-1.0
COc1ccc(/C=C2\SC(=S)N(CCC(=O)N3CCCCC3CCO)C2=O)cc1 (stereo unspecified)	?	-1.6%	-5%	-1	-10%	4%	9.2
Cc1ccc(C)c(NC(=O)C(Sc2nc3ccccc3c(=O)n2CC(C)C)c2ccccc2)c1 (stereo unspecified)	-13	18%	11%	-14	-6%	?	9.0
O=C(c1ccccc1)N(Cc1nc2ccccc2c(=O)[nH]1)C1CCCCC1	9	/	-29%	-2	-15%	-7%	0.6
Cc1cc(N2CCCCC2)nc(N2CCCCC2)n1	-9	-1.8%	-59%[inhibitor]	-11	5%	-5%	-0.2
C(#Cc1ccccc1)C[N+]1(CC#Cc2ccccc2)CCCCC1	-9	/	4%[15.4 µM]	-20	13%	13%	0.7
CCOc1ccc(NC(=O)CN(C)C(=O)CSCc2ccc(C)cc2)cc1OCC	27	-1.8%	13%	-4	-5%	/	/
COc1cc(NC(=O)c2cc(C)on2)cc(OC)c1OC	1	1.4%	39%	-1	6%	12%	2.7
COc1cccc(-n2nnnc2SCC(=O)NC2CCCC2)c1	6	-1.1%	-31%[inhibitor]	-5	-1%	2%	-1.9
COC(=O)c1ccc(/C=N/NC(=O)C(=O)NCC2CCCO2)cc1 (stereo unspecified)	-4	0.7%	-12%[15.4 µM]	-3	7%	7%	-1.6
COc1ccc(NC(=O)CSc2nccn2Cc2ccccc2)c(OC)c1	0	2.2%	-10%	-15	-14%	5%	/
O=c1[nH]c(CN2CCc3ccccc32)nc2scc(-c3cccs3)c12	2	-2.5%	11%	-12	4%	0%	1.4
CCCOc1nc(C)cc(COC)c1C(N)=O	-16	-0.8%	10%[15.4 µM]	-1	-9%	13%	-1.9
Cc1ccc(NC(=O)c2ccc(NC(=O)C3CCCCC3C(=O)O)cc2)cc1 (stereo unspecified)	2	0.6%	3%	-3	8%	23%	/
COc1cccc(NC(=O)CN(C)C(=O)Cc2ccc(Cl)cc2Cl)c1	14	/	-9%[15.4 µM]	2	-9%	19%	1.0
CCc1ccc(/C=C2\Oc3ccc(C(=O)OC)cc3C2=O)cc1	5	-9.2%	17%[15.4 µM]	-6	-18%	-1%	0.3
Cc1cccc(NC(=O)NC(=S)NC(=O)c2ccccc2)c1	13	0.2%	2%[15.4 µM]	-17	-15%	18%	0.8
CCN(CC)CCCNC(=O)Cc1c(C(=O)O)n(C)c2ccccc12	2	-29%	1%	11	7%	15%	2.2
CCC(C)C(NC(=O)C1CCC(C)CC1)C(=O)NCCCN1CCCCC1CC (stereo unspecified)	4	0.4%	-19%	-9	5%	1%	-0.4
COc1ccc(-c2cc(C(N)=O)nc(N3CCCCCC3)n2)cc1	2	?	0%	-5	-8%	10%	2.6
O=C(NCCc1ccccc1)c1cccs1	-19	-2.3%	-1%	-4	-12%	17%	5.3
CCCn1nnc(NC(=O)C(C)C)n1	8	0.7%	-36%[inhibitor]	0	17%	27%	2.4
CC1Cc2nc(SCC(=O)N3CCN(c4ccccc4)CC3)n(C)c(=O)c2S1 (stereo unspecified)	15	0.0%	0%	7	-7%	8%	2.5
CCN(CC)C(=S)NC(=O)c1ccc(F)cc1	-1	/	5%[15.4 µM]	-4	1%	1%	-3.9
CSc1ccccc1C(=O)N(C)Cc1ccccc1	-2	/	-1%[15.4 µM]	-38	-21%	20%	-6.8
Cc1ccc(/C=C/C(=O)Oc2ccc(C#N)cc2)o1	-22	/	/	/	/	14%	-3.7
Cc1ccc2c(c1)N(C(=O)CCC(=O)NC1CCC(C)CC1)CCO2 (stereo unspecified)	3	0.5%	12%	-12	1%	11%	-4.9
O=C1C=C(c2ccc(CO)cc2)C[C@@H](c2ccc3c(c2)OCO3)C1	-22	0.6%	/	-10	-1%	/	/
CCOc1ccc(N(CC(=O)NC2CCCC2)S(=O)(=O)c2c(C)[nH]c(=O)[nH]c2=O)cc1	9	2.1%	?	-2	7%	23%	2.6
CC1(C)Cc2c(cnn2-c2cccc(F)c2)C(NC(=O)C2CCOCC2)C1 (stereo unspecified)	-9	1.9%	22%[15.4 µM]	1	1%	11%	/
Cc1cc(Cl)c(C(=O)Nc2cccc(C(F)(F)F)c2)c(C)n1	-4	-0.2%	-30%[inhibitor]	-2	-6%	?	1.2
COc1ccc(CNS(=O)(=O)c2cc(CN3C(=O)c4cccnc4C3=O)ccc2OC)cc1	-1	-0.8%	11µM*	-5	15%	1%	/
O=c1c2c3c(sc2nc2n1CCCC2)CCC3	-12	-0.3%	-35%[inhibitor]	3	-7%	15%	0.9

Arranged by molecular weight (lowest first): three of the compounds above
SMILES	TRPV1 PAM	ClpP mod	gsp ag	D2 potentiator	gsp antagonist	Sfp inh	Menin-MLL FL inh
O=c1c2c3c(sc2nc2n1CCCC2)CCC3	-12	-0.3%	-35%[inhibitor]	3	-7%	15%	0.9
O=C1C=C(c2ccc(CO)cc2)C[C@@H](c2ccc3c(c2)OCO3)C1	-22	0.6%	/	-10	-1%	/	/
Cc1ccc2c(c1)N(C(=O)CCC(=O)NC1CCC(C)CC1)CCO2 (stereo unspecified)	3	0.5%	12%	-12	1%	11%	-4.9

Continued:
SMILES	TRPV1 PAM	ClpP mod	gsp ag	D2 potentiator	gsp antagonist	Sfp inh	Menin-MLL FL inh
CCN1C(=O)CCN(C2CCCC2)c2nc(Nc3ccc(C(=O)NC4CCN(C)CC4)cc3OC)ncc21	/	-25%	/	-12	-12%	/	/
COc1ccc(N2CCOCC2)c(NC(=O)c2cc3ccccc3o2)c1	-15	/	-9%	0	-31%	-29%	-1.6
Cc1cc2oc(=O)cc(CN3CCOCC3)c2cc1Cl	-13	0.9%	-24%	4	0%	15%	1.4
CC1(C)NC(=O)N(CCOc2ccc3c(c2)CCC3)C1=O	-21	0.4%	-72%[inhibitor]	-1	2%	5%	0.9
CCc1ccccc1NC(=O)CSc1nnc(-c2ccncc2)o1	6	-1.1%	27%	-7	1%	9%	4.2
Cc1[nH]c2ccccc2c(=O)c1CN1CCCCCC1	-14	/	7%	-4	8%	4%	-0.9
NS(=O)(=O)c1ccc(N=Nc2c(-c3ccccc3)[nH]n(-c3nc(-c4ccccc4)cs3)c2=O)cc1	1	-2.0%	-66%[inhibitor]	-16	-12%	12%	2.8

Source: PubChem
